Polio RdRp inh – poliovirus RdRp elongation inhibitors, primary screen, biochemical, fluorescence polarization, total intensity; % elongation, % (compound at 16.7 µg/mL); poliovirus polymerase elongation; hits give low values; 150,000 compounds, 0.66% hits; in the data active = % elongation below about 90%; also: some results filed as inactive read as strong as hits
Target sequence (P03300 1749-2209 limits assumed): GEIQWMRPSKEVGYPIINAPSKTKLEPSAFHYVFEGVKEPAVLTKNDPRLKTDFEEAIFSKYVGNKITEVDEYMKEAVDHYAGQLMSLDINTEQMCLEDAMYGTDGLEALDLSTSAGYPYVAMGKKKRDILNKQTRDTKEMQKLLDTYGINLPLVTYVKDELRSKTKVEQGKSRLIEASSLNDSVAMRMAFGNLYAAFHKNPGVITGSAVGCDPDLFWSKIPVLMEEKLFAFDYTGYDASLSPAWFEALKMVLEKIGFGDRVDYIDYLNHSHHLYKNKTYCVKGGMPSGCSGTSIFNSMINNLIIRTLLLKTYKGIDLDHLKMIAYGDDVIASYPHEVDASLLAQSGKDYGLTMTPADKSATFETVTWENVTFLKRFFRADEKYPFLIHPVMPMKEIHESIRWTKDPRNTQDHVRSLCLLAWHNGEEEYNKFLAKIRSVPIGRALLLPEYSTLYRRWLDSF
Polio RdRp inh intensity – also measured in Polio RdRp inh; calls as there; % elongation; measured here: total intensity read-out; formula for this scale not given here;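 total fluorescence in place of polarization; lower means less elongation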
* marks the source's active call; other numbers are inactive results. The list is partial; count on the stated rates, not on these rows.

SMILES	Polio RdRp inh	Polio RdRp inh intensity
COc1cccc(CNC(=O)CN2C(=O)CSc3c2c(C)nn3-c2ccccc2)c1OC	110	109
Cc1c(F)cccc1NS(=O)(=O)c1cccs1	106	114
Cc1cccc(N2CCN(C(=O)c3cc4c(=O)[nH]c5ccc(C)cc5c4s3)CC2C)c1 (stereo not given)	108	105
COc1cccc(CNC(=O)CN2C(=O)N(c3ccc(C)cc3C)S(=O)(=O)c3ccccc32)c1OC	103	108
COc1ccc(CNC(=O)c2cnn(-c3ccc(C)cc3)c2C2CCN(C(=O)OC(C)(C)C)CC2)cc1	99	103
CC(=O)c1ccc(N2CCN(S(=O)(=O)c3ccc4c(c3)CC(C)N4C(=O)C3CCC3)CC2)cc1 (stereo not given)	107	113
CCOC(=O)c1cccc(NC(=O)CCc2c(C)nn(-c3ccc(N4CCCC4)nn3)c2C)c1	106	113
N#C/C(=C/c1ccc(O)cc1)c1nc(-c2ccc(-c3ccccc3)cc2)cs1	107	112
CCOc1ccc(N(CC)C(=O)c2noc3c2COc2ccc(C)cc2-3)cc1	101	105
COc1ccccc1NC(=O)C1CCN(C(=O)c2sc3nc[nH]c(=O)c3c2C)CC1	103	108
O=C(Nc1nc2c(s1)CCCCCC2)Nc1ccc(F)cc1F	109	110
CC(C)(Oc1ccc(Cl)cc1)C(=O)Nc1nc2ccc(S(C)(=O)=O)cc2s1	107	109
Cc1ccc(-n2c(/C=C/c3cccs3)nc3ccccc3c2=O)cc1C	113	110
CCOC(=O)c1c(S(=O)(=O)NCC(=O)NCc2ccccc2Cl)c(C)n(C)c1C	105	109
CCOc1ccc(CNC(=O)c2ccc3[nH]c(C)c(C)c3c2)cc1OC	106	104
Cc1ccc(Nc2c(-c3ccc(N4CCOCC4)cc3)nc3ncccn23)cc1	110	106
CCCCN(CC)CCCNC(=O)CS(=O)(=O)Cc1nc(-c2ccc(C)cc2)oc1C	106	111
CCOc1ccccc1NC(=O)N(Cc1ccc(F)cc1)C1CCN(CC)CC1	111	113
COc1ccc(OC)c(NS(=O)(=O)c2ccc3c(c2)C(C)(C)C(=O)N3C)c1	112	111
Cc1ccccc1CNC(=O)c1ccc(NC(=O)N2CCCCc3ccccc32)cc1	107	110
O=C(Nc1ccccc1F)C1CCN(S(=O)(=O)c2ccc3c(c2)CCCN3C(=O)C2CCC2)CC1	109	109
CCS(=O)(=O)N1CCc2cc(C(=O)NCc3ccc(Cl)cc3)ccc21	107	114
COc1ccccc1/C=C/c1nc(C#N)c(N2CCCCCC2)o1	110	112
Cc1ccc(OCCn2c(-c3ccc(Br)cc3)nc3ccccc3c2=O)cc1C	107	109

A draw from above in order of heavy-atom count, highest first.
SMILES	Polio RdRp inh	Polio RdRp inh intensity
O=C(Nc1ccccc1F)C1CCN(S(=O)(=O)c2ccc3c(c2)CCCN3C(=O)C2CCC2)CC1	109	109
CCCCN(CC)CCCNC(=O)CS(=O)(=O)Cc1nc(-c2ccc(C)cc2)oc1C	106	111
CCS(=O)(=O)N1CCc2cc(C(=O)NCc3ccc(Cl)cc3)ccc21	107	114

(cont.)
SMILES	Polio RdRp inh	Polio RdRp inh intensity
Cc1cccc(NS(=O)(=O)c2ccc3c(c2)CCCN3C(=O)C2CCC2)c1C	110	106
Cc1ccc(-n2nnc(-c3nsc(NC(=O)c4ccccc4C)n3)c2C)cc1Cl	113	99
Cc1nnc(N2C(=O)c3oc4ccccc4c(=O)c3C2c2ccc(Cl)cc2)s1 (stereo not given)	104	114
CCOc1ccc(-c2nnc(SCC(=O)Nc3ccccc3C(F)(F)F)o2)cc1	107	113
COc1ccc2nc(NC(=O)c3nc(SCc4ccccc4F)ncc3Cl)sc2c1	112	113
O=C(Nc1ccc(Cl)c(-c2nc3cc(Cl)ccc3o2)c1)c1cc2ccccc2o1	105	112
COc1ccccc1CNS(=O)(=O)c1ccc2c(c1)NC(=O)C(C)C(=O)N2 (stereo not given)	105	102
Cc1oc2ccc(O)c(CN3CCOCC3)c2c1C(=O)Nc1ccc(C(C)C)cc1	104	91
Cc1ccc(-c2nc3nc(C)cc(N4CCN(c5cc(Cl)ccc5C)CC4)n3n2)cc1	104	104
COc1ccc(-c2nc(SCC(=O)NCc3ccccc3Cl)n[nH]2)cc1	106	113
CN(C)c1ccc(CNC(=O)Cn2c(=O)oc3cc(S(=O)(=O)NCc4ccccc4)ccc32)cc1	109	106
CC(C(=O)NCc1ccccc1)N1Cc2ccccc2C1=O (stereo not given)	110	107
COc1ccc(CCNC(=O)c2cc3c(=O)[nH]c4ccc(C)cc4c3s2)cc1OC	105	105
COC(=O)c1ccc(NC(=O)CC2C(=O)N(c3cccc(OC)c3)C(=O)N2Cc2ccco2)cc1 (stereo not given)	108	114
CCOc1ccc(NC(=O)C2CCN(S(=O)(=O)c3c(C)noc3/C=C/c3cccs3)CC2)cc1	101	107
COc1ccc(NC(=O)Cn2nc(-c3ccccc3)c3cnc4ccc(C)cc4c32)cc1	103	107
COc1ccccc1CNC(=O)Cn1c(=O)oc2cc(S(=O)(=O)NCc3ccccc3)ccc21	107	98
Cc1cc(C)c2oc(-c3cccc(NC(=O)c4cccc(F)c4)c3C)nc2c1	94	127
CC(C)(C)OC(=O)N1CCC(c2c(C(=O)NCc3ccccc3)cnn2-c2ccccc2)CC1	110	111
COc1ccc(NC(=O)CC2C(=O)N(c3ccc(C)cc3)C(=O)N2Cc2ccc3c(c2)OCO3)cc1 (stereo not given)	107	104
CCN1CCC(N(Cc2ccc(F)cc2)C(=O)Nc2cc(C)ccc2C)CC1	111	118
Cc1ccc(C)c(N2CCN(S(=O)(=O)c3ccc(C4CCCCC4)cc3)CC2)c1	108	111
CCC1=Nc2cc(C(=O)N3CCC(C)CC3)ccc2Sc2ccc(C)cc21	108	109
CC(C)Cn1c(=O)c2sccc2n2c(CCCC(=O)N3CCN(c4ccc(F)cc4)CC3)nnc12	122	111
COc1ccc(-c2nc3scc(CCNS(=O)(=O)c4ccc(NC(C)=O)cc4)n3n2)cc1	110	116
CCCSc1nnc2c(n1)OC(c1cccs1)Nc1ccc(Br)cc1-2 (stereo not given)	104	109
CCc1ccccc1NC(=O)CSc1nnc(COc2ccccc2Cl)o1	107	109
CCN(C(=O)c1ccc(C(=O)N(CC)c2ccccc2C)cc1)c1ccccc1C	109	112
CCCSc1ncc(Cl)c(C(=O)N(Cc2ccc(Cl)cc2)Cc2ccco2)n1	106	111
COc1ccc(CCNC(=O)CCc2c(C)nc3nc(C)nn3c2C)cc1OC	114	111
COc1ccc(-c2nc3cc(C)ccn3c2NC(=O)c2cccc(F)c2)cc1	100	102
Cc1ccc(NC(=O)N2CCc3c([nH]c4ccccc34)C2c2ccccc2F)c(Cl)c1 (stereo not given)	103	106
COc1ccc(NC(=O)CSC2=Nc3ccccc3C3=NC(CCC(=O)NCc4ccco4)C(=O)N23)cc1 (stereo not given)	110	109
Cc1cc(C)n2c(Nc3ccc4c(c3)OCCO4)c(-c3ccc(Cl)cc3)nc2n1	109	103
COc1ccc(-c2nc(SCC(=O)NCCCc3ccccc3)n[nH]2)cc1	109	108
Cc1ccc(N(CC(O)Cn2c3ccccc3c3ccccc32)S(=O)(=O)c2ccc(F)cc2)cc1 (stereo not given)	102	106

Gathered by group, those above containing an NH in an aromatic ring (seven)
SMILES	Polio RdRp inh	Polio RdRp inh intensity
Cc1cccc(N2CCN(C(=O)c3cc4c(=O)[nH]c5ccc(C)cc5c4s3)CC2C)c1 (stereo not given)	108	105
COc1ccccc1NC(=O)C1CCN(C(=O)c2sc3nc[nH]c(=O)c3c2C)CC1	103	108
CCOc1ccc(CNC(=O)c2ccc3[nH]c(C)c(C)c3c2)cc1OC	106	104
COc1ccc(-c2nc(SCC(=O)NCc3ccccc3Cl)n[nH]2)cc1	106	113
COc1ccc(CCNC(=O)c2cc3c(=O)[nH]c4ccc(C)cc4c3s2)cc1OC	105	105
Cc1ccc(NC(=O)N2CCc3c([nH]c4ccccc34)C2c2ccccc2F)c(Cl)c1 (stereo not given)	103	106
COc1ccc(-c2nc(SCC(=O)NCCCc3ccccc3)n[nH]2)cc1	109	108

Continued.
molecule | Polio RdRp inh | Polio RdRp inh intensity
CN1CCN(C(c2ccc(F)cc2)c2sc3nc(-c4ccco4)nn3c2O)CC1 (stereo not given) | 113 | 110
Cc1cc2nc(-c3cccc(NC(=O)COc4ccc(Cl)c(C)c4)c3)oc2cc1C | 109 | 112
COC(=O)c1sc(N2C(=O)c3oc4ccc(C)cc4c(=O)c3C2c2ccc(O)c(OC)c2)nc1C (stereo not given) | 105 | 101
O=C(O)C1=CC(c2ccc(Br)cc2)n2ncnc2N1 (stereo not given) | 111 | 113
CCOc1ccc(CNC(=O)CCS(=O)(=O)c2cc3c4c(c2)CCN4C(=O)CC3)cc1 | 105 | 111
CN(Cc1ccccc1)C(=O)Cn1ncc2c3ccccc3n(Cc3cccc(Cl)c3)c2c1=O | 141 | 162
CC1=C(C(=O)OC2CCCC2)C(c2c(Cl)cccc2Cl)CC(=O)N1 (stereo not given) | 107 | 112
CCc1ccccc1NC(=O)CCNS(=O)(=O)c1ccc2c(c1)CCN2C(=O)C1CC1 | 107 | 102
COc1ccc(OC)c(CNC(=O)C2CCN(c3ncnc4c3nc3n4CCCCC3)CC2)c1 | 110 | 107
O=C(CN1CCCN(S(=O)(=O)c2ccc(Br)cc2)CC1)Nc1cccc(C(F)(F)F)c1 | 106 | 106
COc1ccc(NC(=O)Nc2nnc(N3CCCCCC3)s2)c(OC)c1 | 111 | 102
O=c1nc2n(-c3ccccc3F)c3ccccc3cc-2c(=O)[nH]1 | 104 | 108
Cc1noc(/C=C/c2ccccc2F)c1S(=O)(=O)N1CCC(C(=O)N(C)Cc2ccco2)CC1 | 110 | 108
O=C(NCCC1=CCCCC1)c1ccc2c(c1)N(Cc1cccc(Cl)c1)C(=O)c1ccccc1S2=O (stereo not given) | 104 | 113
CC1=C(c2ccc(C)cc2)S(=O)(=O)NC1=NCCCN1CCN(c2ccccc2F)CC1 | 110 | 121
Cc1cc(C(=O)Nc2cccc(F)c2)c2c(C)nn(-c3cccc(Cl)c3C)c2n1 | 104 | 110
Cc1ccc(CNC(=O)c2c(-c3ccccc3F)noc2C)o1 | 111 | 114
COc1ccccc1CCNC(=O)c1ccc2c(c1)c(C)c(C)n2Cc1ccc(Cl)cc1 | 105 | 105
CCCCc1ccc(NC(=O)C2(C)Cc3ccccc3C(=O)O2)cc1 (stereo not given) | 108 | 110
O=C(NCCn1cc(SCc2ccccc2F)c2ccccc21)c1cccs1 | 106 | 110
CCCN(c1ccc(C(C)C)cc1)S(=O)(=O)c1ccc2c(c1)CCN2C(=O)CC | 107 | 99
Cc1ccc2c(=O)n(-c3cccc(Cl)c3)c(=O)[nH]c2c1 | 106 | 111
Cc1cc(C)nc(NS(=O)(=O)c2ccc(NC(=O)COc3ccc(Cl)cc3C)cc2)n1 | 101 | 103
CCOC(=O)c1ccc(NC(=O)c2ccc(-c3cccc(Cl)c3C)o2)cc1 | 108 | 112
COc1ccc(N2CCN(S(=O)(=O)c3c(C)[nH]c(=O)[nH]c3=O)CC2)cc1 | 103 | 107
Cc1ccn2c(=O)c(NC(=O)c3cccc([N+](=O)[O-])c3C)c(C)nc2c1 | 106 | 110
CC(C)(C)c1ccc(C(=O)N(Cc2ccc(F)cc2)Cc2ccco2)cc1 | 110 | 106
Cc1ccc(Cl)cc1NC(=O)NCc1cccn1Cc1ccc(F)cc1 | 106 | 106
CCCCC12CN3CC(C)(CN(C1)C3c1c(C)[nH]c(=O)[nH]c1=O)C2=O (stereo not given) | 101 | 102
COc1ccc(OC)c(Nc2nc3ccccc3n3c(C)nnc23)c1 | 106 | 111
COc1ccc(-n2c(SCC(=O)c3ccccc3)nc3c([nH]c4ccccc43)c2=O)cc1 | 107 | 114
COc1ccc(CN(CCC(c2ccc3c(c2)OCO3)c2ccccc2OC)C(C)=O)cc1 (stereo not given) | 105 | 111
Cc1ccc(Cn2cc(CCC(=O)NC3CCCCC3)c3ccccc32)cc1 | 111 | 117
COc1ccc(N(C(=O)COc2ccccc2OC)S(=O)(=O)c2ccc(Cl)cc2)cc1 | 99 | 103
COc1ccc(N2CC3=C(C2=O)C(c2ccc(Br)cc2)NC(=O)N3C)cc1 (stereo not given) | 105 | 100
CCOC(=O)c1ccc(N2C(=O)c3n[nH]c(C)c3C2c2ccc(C(C)(C)C)cc2)cc1 (stereo not given) | 110 | 111
Cc1ccc2c(c1)sc1nc(=O)n(-c3ccc(Cl)c(Cl)c3)c(=O)n12 | 109 | 111
O=C(Nc1cccc(Cl)c1Cl)c1cc(S(=O)(=O)NCc2ccc3c(c2)OCO3)ccc1F | 106 | 107
CCOC(=O)c1c(C)n(-c2ccccc2)c2ccc(OC(=O)c3ccc(OCC)c(OCC)c3)cc12 | 108 | 104
Cc1nnc(N2CCC(C(=O)NCc3ccc(F)cc3)CC2)c2nn(-c3ccc(Cl)cc3)c(C)c12 | 106 | 95
CCCCC(CC)CNC(=O)c1ccc(Cn2c(=O)[nH]c3cc(OC)c(OC)cc3c2=O)cc1 (stereo not given) | 108 | 106
COc1ccccc1CNC(=O)C1(c2cccs2)CCOCC1 | 106 | 109
Cc1nc(N2CCOCC2)c2c(C(=O)NCc3cccc(Cl)c3)c(C)oc2n1 | 106 | 107
O=C(COc1ccccc1)Nc1sc2c(c1C(=O)Nc1ccccc1)CCCCC2 | 106 | 107
CCCCNC(=O)C1CCN(S(=O)(=O)c2cc(Br)cc3c2N(C(=O)CC)CC3)CC1 | 107 | 113
CCOc1ccc(NC(=O)CSc2ccc3ccccc3n2)cc1 | 109 | 110
Cc1ccc2sc(N(CCCN(C)C)C(=O)c3ccco3)nc2c1C | 97 | 94
CCOC(=O)C1CCN(C(=O)c2ccc3c(=O)n4nc(Nc5cc(C)ccc5C)sc4nc3c2)CC1 | 107 | 105
CCCn1c(=O)sc2cc(NC(=O)c3ccccc3OCC)ccc21 | 115 | 117
CCOC(=O)c1ccc(N2C(=O)c3n[nH]c(-c4ccco4)c3C2c2cccc(OC)c2)cc1 (stereo not given) | 108 | 112

Screening data from PubChem BioAssay.
